# Ba CapD inh = inhibitors of Bacillus anthracis CapD enzyme; purified CapD enzyme, fluorescence intensity read-out; active compounds read low; some hits fall short of the stated cut; z-score (test concentration not listed); actives 0.23% (n = 140,000);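 active means z-score under -4 in either of two replicates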;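 further: stock transfer was 100 nL into about 40 µL; score is relative to mean and spread of the plate; one replicate is shown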
# AID504770 = E. coli YBA685 growth inhibition, screen for V. cholerae RctB inhibitors | E. coli YBA685 rctB-dependent plasmid, OD600 growth, 3 h; active compounds read low | z-score (test concentration not listed) | actives 0.27% (n = 130,000) | AID 504770;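 active means z-score under -2 on both plates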;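 further: wells of about 30 µL received 100 nL stock; score is relative to mean and SD of the test wells; the first replicate is given; strong numbers were not always called active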
# * marks the source's active call; other numbers are inactive results; nt = not tested or not shown; & = joins results of further samples. An unsorted share of the library. About 0.39% of those tested had a hit in this group.
SMILES,Ba CapD inh,AID504770
Cc1ccc(O)c(NC(=O)C2CC(c3ccc(Cl)cc3)=NO2)c1 (stereo not given),-0.56,-0.8
C=C(C)Cn1c(-c2ccccc2)nc2ccccc21,8.5,-0.05
O=C(CSc1ncc(CO)n1Cc1ccc(Cl)cc1)Nc1ccc2c(c1)OCCO2,-0.22,0
CC(=O)Nc1ccc(C2SCCS2)cc1,4.3,-1.1
CCN(CC)C(=O)c1ccc2c(=O)n(Cc3ccccc3)c(SCC(=O)C(C)(C)C)nc2c1,0.56,-0.45
Oc1cc2c(cc1C(c1ccc(C(F)(F)F)cc1)N1CCN(c3ccccc3)CC1)OCO2 (stereo not given),nt,0
Cc1ccc2nc(SC(C)C(=O)c3c(N)n(C)c(=O)n(C)c3=O)[nH]c2c1 (stereo not given),nt,-0.2
C=C(C)CC1C=CCC(CC(=C)C)N1 (stereo not given),nt,-0.4
Cc1[nH]c(=S)[nH]c(=O)c1Oc1ccccc1,8.8,1.5
CC(C)(C)OC(=O)C(Cc1c[nH]c2ccccc12)NC(=O)OCc1cc2c(cc1Cl)OCO2 (stereo not given),-0.9,nt
O=C(O)CN1C(=O)S/C(=C\c2ccccc2)C1=O,nt,0.05
Sc1cccc2cccnc12,nt,0
Cc1ccc2ccc(C3C(=O)c4cccnc4C3=O)nc2c1 (stereo not given),nt,0
CNc1nnc(-c2ccccc2)s1,nt,-1.3
CCn1nc(C)c(Br)c1-c1nc(-c2ccccc2)no1,10,0.25
COC(=O)c1c(C(C)(C)C)oc2c1cc(NS(=O)(=O)c1ccc(OC)cc1)c1ccccc12,0.11,nt
O=C1/C(=C/c2ccccc2)SC(=Nc2ccc(O)cc2)N1c1ccc(O)cc1,-0.27,0.15
O=C1Nc2ccccc2OC1CC(=O)N1CCN(Cc2ccc3c(c2)OCO3)CC1 (stereo not given),0.11,-0.3
O=C(CN1C(=O)CCC1=O)NC(=S)Nc1cccc(-c2nc3ccccc3o2)c1,nt,-0.35
CCC(=O)N1c2ccccc2NC2=C(C(=O)CC(c3ccccc3)C2)C1c1ccccc1 (stereo not given),-0.42,-0.9

# Next section, overlapping the part above by four compounds.
SMILES,Ba CapD inh,AID504770
O=C1/C(=C/c2ccccc2)SC(=Nc2ccc(O)cc2)N1c1ccc(O)cc1,-0.27,0.15
O=C1Nc2ccccc2OC1CC(=O)N1CCN(Cc2ccc3c(c2)OCO3)CC1 (stereo not given),0.11,-0.3
O=C(CN1C(=O)CCC1=O)NC(=S)Nc1cccc(-c2nc3ccccc3o2)c1,nt,-0.35
CCC(=O)N1c2ccccc2NC2=C(C(=O)CC(c3ccccc3)C2)C1c1ccccc1 (stereo not given),-0.42,-0.9
O=C(O)[C@@H]1CSC(c2cccc(O)c2)N1 (stereo not given in full),-0.65,nt
Cc1cc(NC(=O)C2CC(=O)N(c3ccccc3C)C2)no1 (stereo not given),nt,-0.8
Cc1cccc(NC(=O)c2cc3sccc3n2C)c1C,0.42,-0.6
CCOc1cc(C2Nc3ccc4ccccc4c3C3=C2C(=O)CCC3)cc(Br)c1O (stereo not given),4.9,nt
CCOC(=O)c1c(NC(=O)c2ccn(CC)n2)sc2c1CCC2,-0.015,0.5
COc1cc(OC)nc(NCC(NC(=O)c2ccccc2)C(N)=O)n1 (stereo not given),1.2,-0.65
Cc1cc(NC(=O)c2ccc3c(c2)C(=O)N(Cc2ccccc2)C3=O)no1,-0.35,-0.65
CS(=O)(=O)N(CC(N)=O)C1CCCCC1,0.095,-0.55
CN1C(=O)N(C)C2(c3ccccc3)Nn3c(s/c(=C\C=C/c4ccc([N+](=O)[O-])o4)c3=O)=NC12c1ccccc1 (stereo not given),-0.13,nt
CC(C)(CCCCC(C)(C)C(=O)O)C(=O)O,-0.36,nt
O=c1ccc(-c2ccc(S(=O)(=O)Nc3ccccc3)s2)n[nH]1,-0.14,-0.25
Cc1ccc(Sc2nc(-c3ccccc3)ncc2S(C)(=O)=O)c(C)c1,-0.16,nt
Cc1ccc2c(c1)N(C(=O)NC1CCCCC1)C(C)(C)CC2C (stereo not given),0.85,nt
CCOC(=O)N1CCN(C(=O)C(C)(C)Oc2ccc(Cl)cc2)CC1,-0.1,-0.65
COc1ccc2nc(Cl)c(C#N)cc2c1,1.9,-0.7
CC(=O)Nc1nonc1Nc1csc(CC#N)n1,-0.38,0.9
O=C(OCc1ccc([N+](=O)[O-])cc1)C1CCCN1C(=O)OCc1ccc2ccccc2c1 (stereo not given),0.32,nt
CCOC(=O)CSc1nc(NCc2ccc3c(c2)OCO3)c2ccccc2n1,-0.55,nt
Cc1cc(C)nc(NCCC(=O)O)n1,1.2,-1.3
CN(CCc1ccccn1)C(=O)c1cc(-c2cccs2)nc2ccccc12,116,-0.4
Cc1cccc(-c2noc(CN(C(=O)c3ccc(Br)o3)C(C)C)n2)c1,-0.24,-0.25
CCCc1nnc(NC(=O)c2ccccc2)s1,-0.21,0
O=C(NCc1ccncc1)C12CC3CC(CC(C3)C1)C2,nt,-0.1
Cc1ccc(-n2ncc3c(NC4CCCCC4)ncnc32)c(C)c1,-0.82,-0.35
CC(C)OC(=O)CSc1nc(N)c(C#N)cc1C#N,35,-0.45
CCN(CC(=O)NCc1ccc2c(c1)OCO2)S(=O)(=O)c1ccc(F)cc1,nt,-0.75
Cc1c(C(=O)O)[nH]c2c1/C(=N/N1CC(=O)NC1=O)CC(C)(C)C2,nt,-0.4
CC(C)N1C(=O)C2C3CC(=O)C(c4ccccc43)C2C1=O (stereo not given),7.2,nt
COc1cc(OC)c(NC(=O)Cn2ncc3c(=O)oc4ccc(C)cc4c32)cc1Cl,0.18,3.7
CCCNC(=O)CN=C1NS(=O)(=O)C(c2ccc(C)cc2)=C1CC,0.27,0.15
CCCCn1c(SCC(=O)OC)nc2ccccc2c1=O,nt,-0.75
COc1cccc(C(=O)Nc2ccccc2Cl)c1,nt,-0.15
COc1ccc(/C=C/C(=O)NCc2ccco2)cc1OC,13,2.3
CCOc1ccccc1NC(=O)COC(=O)c1cc(Cl)ccc1Cl,-0.74,-0.05
COc1ccc(OC)c([C@@H]2[C@@H](C(=O)c3ccccc3)N3c4ccccc4C=C[C@@H]3C2(C#N)C#N)c1,-0.075,nt
CCOC(=O)Cn1c(=O)c(-c2cc(Br)ccc2NC)nc2cc3ccccc3cc21,0.66,nt
O=C1C(Sc2ncn[nH]2)=C/C(=N/S(=O)(=O)c2ccc(F)cc2)c2ccccc21,-1.4,-1.2
CCN(CCN(C)C)S(=O)(=O)c1ccc(C(C)(C)CC)cc1,-0.34,nt
CN(C)c1ccc(C2=CC(C3CC3)=C(C#N)C(=C(C#N)C#N)N2)cc1,nt,1.5
N#CCCn1cc(C(=O)CSc2nnc(-c3ccccc3Cl)n2C2CCCC2)c2ccccc21,nt,-0.05
COc1ccc(Cc2nccc3cc(OC)c(OC)cc23)cc1OC,0.6&0.055,0.15
COC(=O)c1ccc(Oc2coc3cc(O)ccc3c2=O)cc1,0.15,0.5
COc1cc(/C=C2\C(=O)NC(=S)N(c3ccc(Cl)cc3)C2=O)cc([N+](=O)[O-])c1O,-2.8,nt
O=C(COc1ccccc1F)NCCc1ccc2c(c1)OCCO2,nt,-0.7
COc1ccc(Nc2cc(N(C)C)c3nonc3c2[N+](=O)[O-])cc1,-0.24,nt
O=c1[nH]c(=S)[nH]c2c1C1(CCCCC1)Cc1ccccc1-2,0.17,nt
CC(=O)OCc1c(C)c(C)c(C)c(C)c1C,0.31,0
Oc1ccc(CN2CCN(c3ccc(F)cc3)CC2)c2cccnc12,-0.26,0.5
COC(=O)C(CC(C)C)NC(=O)c1cc(-c2ccccc2)nc2ccccc12 (stereo not given),17,0.8
O=C(O)CCN1C(=O)/C(=C\c2ccccc2)SC1=S,-1.2,1.4
Cc1cc(NC(=O)CSCC(=O)N2CCN(c3ccccc3)CC2)no1,nt,-0.8
CCOC(=O)c1ccc(-n2c(=S)sc3c2nc(SCC(=O)NC2CCCCC2)n2c4ccccc4nc32)cc1,-0.24,nt
C=CCSc1nc(O)c(CC)c(=O)n1-c1ccccc1,-0.045,0
Cc1ccc(N2C(=O)CSC23C(=O)Nc2ccccc23)c(C)c1 (stereo not given),-0.14,nt
S=c1nc(-c2ccc(Cl)cc2)[nH][nH]1,-0.7,nt
Cc1ccc(/C=N/NC(=O)CCc2c(C)n[nH]c2C)cc1,0.04,-1.2
Cc1ccc2cc(NC(=O)c3ccccc3)ccc2n1,0.42,nt
N#Cc1ccc(-c2ccc3c(c2)OCCO3)[nH]c1=S,17,0.95
CC1CN(C(=O)C(C)OC(=O)c2ccc(-c3ccccc3)cc2)CC(C)O1 (stereo not given),nt,0.7
CSc1nc(N)nc(-c2ccccn2)n1,0.17,nt

# Reprinted from the part before: 5 entries, then new ones.
SMILES,Ba CapD inh,AID504770
Cc1ccc(/C=N/NC(=O)CCc2c(C)n[nH]c2C)cc1,0.04,-1.2
Cc1ccc2cc(NC(=O)c3ccccc3)ccc2n1,0.42,nt
N#Cc1ccc(-c2ccc3c(c2)OCCO3)[nH]c1=S,17,0.95
CC1CN(C(=O)C(C)OC(=O)c2ccc(-c3ccccc3)cc2)CC(C)O1 (stereo not given),nt,0.7
CSc1nc(N)nc(-c2ccccn2)n1,0.17,nt
CC(NC(=O)Nc1cccc(Cl)c1Cl)c1ccc2c(c1)OCO2 (stereo not given),-0.3,-0.3
CC(=O)NC1C(OCc2ccccc2)OC(CO)C(OC(C)=O)C1OC(C)=O (stereo not given),-0.16,nt
COc1ccc(CN(Cc2cc(OC)c(OC)c(OC)c2)C(=O)C(C)(C)C)cc1,0.47,1.5
COc1ccc(CC(=O)Nc2ccc(O)c(-c3nc4ccccc4o3)c2)cc1,19,-1.2
O=C(COc1ncnc2sccc12)N1CCCCC1,nt,1.9
CC(C)(COC(=O)c1ccccc1)N=C1NS(=O)(=O)c2ccccc21,0.29,2
O=C(NCC1CCCO1)c1cn(-c2ccccc2)nc1-c1cccs1 (stereo not given),0.025,-0.1
O=C(O)CCCC(=O)Nc1ccccc1SCc1noc(-c2cccs2)n1,0.14,1.9
COc1ccc(Nc2nc(N)nc(CN3CC(C)CC(C)C3)n2)cc1 (stereo not given),0.075,-0.4
O=C(Cn1ncc2c3ccccc3n(Cc3ccccc3)c2c1=O)NC1CC1,1.5,-0.95
O=C(CSc1ccccn1)NCc1ccc2c(c1)OCO2,-0.22,-1.1
CCOc1ccc2c(c1)C(SCC(=O)O)CC1(CCCC1)O2 (stereo not given),nt,0.15
C=CCNc1nccc(C(F)(F)F)n1,0.39,nt
CCC1SC(=NC(=O)c2cccs2)NC1=O (stereo not given),nt,-0.9
O=C(NCc1cccs1)C(CSCc1ccccc1)N1Cc2ccccc2C1=O (stereo not given),-0.085,-0.35
Cc1ccc(NC(=O)CN(C)C(=O)CSc2nc(C)cs2)cc1,nt,-0.25
N#CC1=C(N=Cc2ccccc2)c2ccccc2CC12CCCCC2,-0.21,nt
Cc1c(C(=O)N2CCCCCC2)sc2ncnc(N3CCN(c4ccccc4)CC3)c12,-0.015,-0.35
CCCn1c2c(c(=O)[nH]c1=O)C(=O)C(C)N2 (stereo not given),nt,-1.1
CSc1sc(C(=O)NC(C)C)c(-c2cccs2)c1C#N,-0.51,-0.6
O=C(CSc1ccc(Cl)cc1)c1cccs1,nt,-0.25
COc1cc2c(C#N)c(N(C)CCc3ccc(OC)c(OC)c3)nc(N)c2c(N)n1,nt,0.35
O=C(NCc1ccco1)c1ccc(CSc2nc3ccncc3n2Cc2ccccc2)cc1,0.57,-1.2
Cc1ccccc1NC(=O)Cn1c(=O)n(C2CCCCC2)c(=O)c2cccnc21,0.005,1.4
O=C(NC1CCCCCC1)c1ccc2c(c1)[nH]c(=S)n1c3ccccc3nc21,-0.005,nt
CC(C)(C)NC(=O)c1sccc1C(=O)O,-0.18,-0.7
CCOc1ccc(OCc2ccc(C(=O)NCc3cccnc3)o2)cc1,1.4,-0.6
O=C(O)/C=C/c1ccc(Cl)cc1,0.51,0.1
O=C(CN1CC(=O)Nc2ccccc21)Nc1ccc(S(=O)(=O)N2CCCC2)cc1,nt,-0.65
COc1ccccc1NC1CCCCC1NS(=O)(=O)c1ccccc1 (stereo not given),8.1,0.25
CCOc1cc(C)c(Cl)cc1S(=O)(=O)n1nnc2ccccc21,0.44,-0.25
COc1ccccc1C(O)(C(=O)N(NC(C)=O)c1ccccc1)c1ccccc1OC,-0.14,nt
Cc1ccccc1-c1nnc(SC(C)C)o1,nt,-1.8
Cc1cccc(CCOC(=O)NNC(=O)Cn2cnc(Cl)c2Cl)c1,0.45,nt
CC1(C)CC(=O)C2=C(C1)Nc1ccccc1N(C(=O)c1ccccc1)C2c1ccc2c(c1)OCO2 (stereo not given),3.4,nt
COC(=O)C1C(=O)CC(C)(O)C(C(=O)OC)C1c1ccccc1 (stereo not given),0.37,0.85
COC(=O)C(CC(C)C)NC(=O)c1ccc(OC(C)=O)cc1 (stereo not given),0.44,0.4
O=C(/C=C/Nc1ccccc1F)c1cccs1,-1.1,-1.1
O=C(O)CSc1nnc2c(n1)[nH]c1ccccc12,-0.77,0.25
Cc1ccc(-c2onc3ccc(C(=O)O)cc23)cc1,-0.4,0.95
Cc1ccccc1NC(=O)c1[nH]cnc1C(=O)NN,0.27,-0.5
CCC1=C(c2ccc(C)cc2)S(=O)(=O)N=C1N1CCC(C(=O)NC2CC2)CC1,-1.4,-0.1
CC(=O)n1cc(/C=C2\N=C(c3ccccc3C)OC2=O)c2cc(Br)ccc21,0.12,nt

# An excerpt from above in order of formula weight, descending.
SMILES,Ba CapD inh,AID504770
CCC1=C(c2ccc(C)cc2)S(=O)(=O)N=C1N1CCC(C(=O)NC2CC2)CC1,-1.4,-0.1
O=C(NC1CCCCCC1)c1ccc2c(c1)[nH]c(=S)n1c3ccccc3nc21,-0.005,nt
Cc1ccccc1-c1nnc(SC(C)C)o1,nt,-1.8
CC(C)(C)NC(=O)c1sccc1C(=O)O,-0.18,-0.7

# Assay outcomes as filed in PubChem BioAssay.
